# PABP polyA inh – PABP poly(A) RNA binding inhibitors, primary screen, biochemical, fluorescence polarization, uHTS | hit rate 1% among 290,000 | Polyadenylate-binding protein 1 (Homo sapiens), P11940 | AID 2014, 2009 | inhibition, % at 35 µM;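 active means 50% or more with normal probe brightness, or confirmed in later tests; inconclusive means above 50% with abnormal brightness, or retests that disagree; inactive means below 50% or failed in later tests; about a fifth of its hits are not listed in these tables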;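 further: calls also rest on retests at 20 µM and on dose response follow-up; controls were probe without protein and protein plus probe with vehicle; some compounds called inactive have numbers as strong as hits; many hits fall short of the cut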
# CSC inhib – cancer stem cell viability inhibitors, primary screen, luminescence. hit rate 1.1% among 300,000. cancer stem cell-like cells viability. inhibition, % at 7.5 µM;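 active means mean at 75% or more and at least half the replicates too; inconclusive means mean and replicates disagree; tested in HMLE shEcad cells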;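 further: 0% = median of negative and 100% = median of positive control wells; the first replicate is given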
# Env fusion inh – inhibitors of HIV-1 Env-driven cell-cell fusion, primary screen, HeLa-JRFL effector, CEM21 target cells, luciferase; hit rate 1.1% among 360,000; inhibition, % at 12.3 µM;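 active means mean replicate inhibition score of at least 50 and every replicate individually at or above 50; inconclusive means only one of the two criteria met; inactive means mean below 50 and not all replicates reaching 50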;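 further: 0% = plate neutral controls and 100% = maraviroc near 300 nM; one replicate is shown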
# eIF4H FP inh – human eIF4H binding inhibitors, primary screen, translation initiation inhibitor project, biochemical, uHTS, fluorescence polarization; Eukaryotic translation initiation factor 4H (Homo sapiens), Q15056; eIF4H fluorescence polarization binding assay; inhibition, % at 35 µM; hit rate 0.94% among 290,000; AID 2012, 2009;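 active means 50% or more with normal probe brightness, or confirmed in later tests; inconclusive means above 50% with abnormal brightness, or retests that disagree; inactive means below 50% or failed in later tests; about a fifth of its hits are not listed in these tables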;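 further: calls also rest on retests at 20 µM and on dose response follow-up; 0% = protein and probe with vehicle and 100% = probe without protein; strong numbers were not always called active; many hits fall short of the cut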
# MT1-MMP act inh – blockers of MT1-MMP proenzyme processing, primary screen, HT1080 RFP-PRO-GFP cells, GFP/RFP fluorescence; Matrix metalloproteinase-14 (Homo sapiens), P50281; GFP/RFP ratio fluorescence, overnight; percent of plate control window, DMSO zero; GFP/RFP ratio change, % at 20 µM; hit rate 0.061% among 360,000; AID 651647, 2012;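 active means GFP/RFP ratio change of at least 30% with cell ATP level not reduced by more than half and red fluorescence within 50% of control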; further: strong numbers were not always called active
#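 Test system: HT1080 RFP-PRO-GFP cells; Benchmarks: DMSO and RFP-L50D-GFP cell wells; Timing: cells overnight before dosing, compound overnight, 37 °C, 5% CO2; Compound: one 20 µM compound dose with 1% DMSO; Read-out: GFP/RFP fluorescence ratio.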
# UUG fidelity – modulators of yeast start codon fidelity, primary screen, whole organism, S. cerevisiae, single point, plate reader; AID 602363, 2012; hit rate 0.13% among 350,000; activity score, % at 18.7 µM; S. cerevisiae UUG-firefly luciferase reporter, luminescence/redox ratio;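 active means replicate mean at a twofold rise or more, about +100% in these data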;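 further: firefly luciferase made from a UUG start codon reports start codon fidelity; reporter light over untreated wells divided by growth signal over untreated wells; some hits fall short of that in this replicate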
# Rce1 inhib – yeast Rce1p protease inhibitors, primary screen, biochemical, fluorescence, cell-free homogeneous; yeast membranes, quenched prenylated peptide cleavage fluorescence; calls only; hit rate 0.27% among 290,000; CAAX prenyl protease 2 (Saccharomyces cerevisiae (strain ATCC 204508 / S288c)), Q03530; AID 2563, 2010;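 active means fall in fluorescence gain of 50% or more versus controls, with final raw signal at or below 3038400; inconclusive means same 50% fall but final raw signal above 3038400; inactive means fall in fluorescence gain under 50%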;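 further: plate controls were neutral control wells for no effect and wells lacking membranes for full effect; tested at 10 µM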
# Target sequence (Q03530 whole entry, looked up): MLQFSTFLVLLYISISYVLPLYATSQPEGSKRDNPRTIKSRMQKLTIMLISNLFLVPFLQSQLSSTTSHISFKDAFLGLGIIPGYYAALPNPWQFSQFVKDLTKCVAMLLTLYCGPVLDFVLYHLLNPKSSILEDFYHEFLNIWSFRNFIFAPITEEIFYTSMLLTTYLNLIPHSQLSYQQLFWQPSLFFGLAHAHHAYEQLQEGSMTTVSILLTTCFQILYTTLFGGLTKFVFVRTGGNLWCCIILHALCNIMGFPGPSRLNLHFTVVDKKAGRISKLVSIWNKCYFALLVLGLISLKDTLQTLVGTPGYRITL
# eIF4H FP inh retest – recorded beside eIF4H FP inh, whose call it bears; inhibition, %; compound at 20 µM; confirmation average;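 mean of two retest wells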
# PABP polyA inh retest – further read-out of PABP polyA inh, marked with its call; inhibition, %; compound at 20 µM; confirmation repeats;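 mean of two retest wells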
# MT1-MMP act inh RFP – second read-out of MT1-MMP act inh, no call of its own (marks repeat the call); RFP signal change, %; measured here: RFP expression control read;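 0 = vehicle wells; hits needed this value within 50% of zero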
# * = called active by the depositor; i = inactive; ? = inconclusive; . = no result given. Outcome played no part in choosing rows (roughly 2.9% active in at least one column).
SMILES,PABP polyA inh,CSC inhib,Env fusion inh,eIF4H FP inh,MT1-MMP act inh,MT1-MMP act inh RFP,UUG fidelity,Rce1 inhib,others
COc1ccccc1C(=O)N/C(=C/c1ccc(Br)cc1)C(=O)NCC(=O)O,2,12,0,-21,-1,2,-11,i,
CCN(CC)S(=O)(=O)c1ccc(Cl)c(NC(=O)CSc2cccc[n+]2[O-])c1,11,-9,20,-11,0,1,-4,i,
COc1ccccc1NC(=O)C1=C(C)Nc2nc(CCCO)nn2C1c1cccnc1 (stereo unspecified),-4,-9,.,-3,4,3,-10,i,
Cc1cc(C(=O)NNC(=O)c2ccc(S(=O)(=O)N(C)C)cc2)c(C)o1,1,.,-27,2,3,5,.,i,
CSCc1ccc(C(=O)NC(C)c2cnn(-c3ccccn3)c2C)o1 (stereo unspecified),-6,7,7,0,-1,0,-2,i,
CC(C)c1nnc(NC(=O)C2CCN(C(=O)Nc3ccc(Cl)cc3)CC2)s1,-6,-5,4,-5,3,-2,-41,i,
O=C(COC(=O)c1ccc2ncsc2c1)Nc1cc([N+](=O)[O-])ccc1Cl,.,.,-10,.,-4,2,-18,.,
Cc1cccc(NC(=O)CCNC(=O)c2ccco2)c1C,-13,-19,2,2,-1,4,.,i,
CCO/C(C)=C1/SC(=S)NC1=O,5,-25,0,-8,-3,28,3,i,
Cc1ccc(Nc2c([N+](=O)[O-])c(=O)n(C)c3ccccc23)cc1,0,.,2,-12,-2,-4,.,i,
COc1ccc(NC(=O)CN(C)C(=O)c2ccc(N3CCCCC3)c([N+](=O)[O-])c2)cc1,.,1,0,.,2,0,-8,i,
CCCC1CC(CCc2ccccc2)OS(=O)(=O)N1 (stereo unspecified),14,19,12,0,0,0,-21,i,
C[N+](C)(C)CCOc1ccc([N+](=O)[O-])cc1,-1,-6,-6,0,3,4,.,i,
Cc1cc(NC(=O)C(C)SCC(=O)N(Cc2ccccc2)c2ccccc2)no1 (stereo unspecified),.,16,1,.,6,8,2,i,
Cc1cc(C)n2nc(CCCO)nc2n1,-12,-10,-9,8,-1,2,1,i,
Cc1cc2nc3n(c2cc1C)CC1CC(C(=O)NCc2ccco2)N(C)C31 (stereo unspecified),16,-9,19,-12,4,2,-8,i,
NC(=O)c1c(NC(=O)c2cccnc2)sc2c1CCCC2,-17,9,-87,3,.,.,.,i,
Cc1ccc(NC(=O)c2ccc3c(c2)N(CC(=O)N2CCCCC2)C(=O)C(C)(C)O3)cc1,-2,-5,-34,-1,4,3,-7,i,
Cc1cc(C)c(-n2nnnc2SCC(=O)c2cc3ccccc3o2)c(C)c1,-30,5,2,13,-8,-12,0,i,
COc1cccc(NC(=O)COc2c(F)c(F)c(C(F)(F)F)c(F)c2F)c1,-8,.,-5,-4,2,3,-1,i,
COc1ccc(CNC(=O)CN(CC2CCCO2)C(=O)CNS(=O)(=O)c2ccc(F)cc2)cc1 (stereo unspecified),3,.,.,-1,0,4,-17,i,
COc1ccc(/C=C2\CC/C(=C\c3ccc(OC)c(OC)c3)C2=O)cc1OC,-16,-19,-5,-1,-12,-22,1,i,
CC12CCC(C(=O)NCc3ccc4c(c3)OCO4)(C(=O)C1=O)C2(C)C (stereo unspecified),-12,.,-36,7,6,9,-7,i,
COC(=O)c1[nH]c2cccc(OC)c2c1NC(=O)CCN1CCC(C(N)=O)CC1,-1,-9,.,-1,.,.,.,.,

# 16 structures already listed, ordered by SMILES length, ascending.
SMILES,PABP polyA inh,CSC inhib,Env fusion inh,eIF4H FP inh,MT1-MMP act inh,MT1-MMP act inh RFP,UUG fidelity,Rce1 inhib,others
CCO/C(C)=C1/SC(=S)NC1=O,5,-25,0,-8,-3,28,3,i,
CCCC1CC(CCc2ccccc2)OS(=O)(=O)N1 (stereo unspecified),14,19,12,0,0,0,-21,i,
Cc1cccc(NC(=O)CCNC(=O)c2ccco2)c1C,-13,-19,2,2,-1,4,.,i,
NC(=O)c1c(NC(=O)c2cccnc2)sc2c1CCCC2,-17,9,-87,3,.,.,.,i,
C[N+](C)(C)CCOc1ccc([N+](=O)[O-])cc1,-1,-6,-6,0,3,4,.,i,
CSCc1ccc(C(=O)NC(C)c2cnn(-c3ccccn3)c2C)o1 (stereo unspecified),-6,7,7,0,-1,0,-2,i,
Cc1cc(C)c(-n2nnnc2SCC(=O)c2cc3ccccc3o2)c(C)c1,-30,5,2,13,-8,-12,0,i,
Cc1cc2nc3n(c2cc1C)CC1CC(C(=O)NCc2ccco2)N(C)C31 (stereo unspecified),16,-9,19,-12,4,2,-8,i,
Cc1cc(NC(=O)C(C)SCC(=O)N(Cc2ccccc2)c2ccccc2)no1 (stereo unspecified),.,16,1,.,6,8,2,i,
CC12CCC(C(=O)NCc3ccc4c(c3)OCO4)(C(=O)C1=O)C2(C)C (stereo unspecified),-12,.,-36,7,6,9,-7,i,
COc1ccc(/C=C2\CC/C(=C\c3ccc(OC)c(OC)c3)C2=O)cc1OC,-16,-19,-5,-1,-12,-22,1,i,
O=C(COC(=O)c1ccc2ncsc2c1)Nc1cc([N+](=O)[O-])ccc1Cl,.,.,-10,.,-4,2,-18,.,
COC(=O)c1[nH]c2cccc(OC)c2c1NC(=O)CCN1CCC(C(N)=O)CC1,-1,-9,.,-1,.,.,.,.,
COc1ccc(CNC(=O)CN(CC2CCCO2)C(=O)CNS(=O)(=O)c2ccc(F)cc2)cc1 (stereo unspecified),3,.,.,-1,0,4,-17,i,
Cc1ccc(NC(=O)c2ccc3c(c2)N(CC(=O)N2CCCCC2)C(=O)C(C)(C)O3)cc1,-2,-5,-34,-1,4,3,-7,i,
COc1ccc(NC(=O)CN(C)C(=O)c2ccc(N3CCCCC3)c([N+](=O)[O-])c2)cc1,.,1,0,.,2,0,-8,i,

# Other records:
SMILES,PABP polyA inh,CSC inhib,Env fusion inh,eIF4H FP inh,MT1-MMP act inh,MT1-MMP act inh RFP,UUG fidelity,Rce1 inhib,others
O=CN/C=C/c1cc(O)ccc1O,91*,17,.,94*,-1,4,-25,.,
CCOc1ccccc1N1CCN(CC(=O)NC(C)c2ccccc2)CC1 (stereo unspecified),2,-5,20,3,0,0,-6,i,
CN=c1sc2ccccc2n1CC(O)COCc1ccco1 (stereo unspecified),5,12,.,-8,2,-1,-1,i,
CSc1ccc(/C=C/C(=O)N2CCCN(C)CC2)cc1,?,-2,-7,2,1,0,.,.,
COc1cccc(CN(C)C(=O)c2cc(S(=O)(=O)NC3CCCCC3)ccc2C)c1OC,.,-14,5,.,-1,-3,20,.,
O=C(/C=N\O)NCCCNCc1ccccc1,-2,-4,6,-5,0,1,-1,i,
O=C(Nc1c(F)cc(F)cc1Br)c1ccco1,3,-9,.,-2,5,4,.,i,
COc1ccc(CN2CCCC(CNC(=O)c3ccc(F)cc3)C2)c(C)c1C (stereo unspecified),-5,-2,36,4,0,1,.,i,
CCNC(=O)COC(=O)Cc1ccc(Cl)cc1Cl,80,-7,-14,-2,4,5,.,.,eIF4H FP inh retest=-8;PABP polyA inh retest=3
Cc1nn(C(=O)c2c(-c3ccccc3)noc2C)c(C)c1N=Nc1cc(C(F)(F)F)cc(C(F)(F)F)c1,11,7,10,-8,4,-3,-14,i,
CS(=O)(=O)Nc1nc2n(n1)C(c1ccccc1)CC(c1ccccc1)N2 (stereo unspecified),3,-8,5,2,0,-1,-10,i,
COc1cc(OC)cc(C(=O)OCC(=O)NCc2ccc3c(c2)OCO3)c1,-5,-6,13,12,1,2,.,.,
COc1cccc(NC(=O)CSC(N)=O)c1,32,12,2,5,-1,5,.,i,
CCOCCn1c(SCC(=O)OCc2ccccc2)nc2c1c(=O)[nH]c(=O)n2C,-3,10,i,-6,1,6,-12,i,
COc1ccc(N(CC(=O)NCCC2=CCCCC2)S(=O)(=O)c2ccccc2)c(OC)c1,-6,-4,-17,2,3,2,-9,i,
O=C1Nc2cc(C(=O)N3CCN(c4ccccn4)CC3)ccc2S/C1=C\c1ccccc1,.,6,5,.,-1,-6,5,i,
O=C(NC1CCC(c2ccccc2)CC1)c1cccnc1 (stereo unspecified),-1,-14,5,2,0,1,.,i,
CN(C)CCCN(C(=O)c1ccc2c(c1)OCCO2)c1nc2ccc(Cl)cc2s1,4,0,.,-2,-6,-4,-3,i,
Cc1cc(C(=O)O)ccc1-c1ccc(/C=C2\SC(=O)N(CC(=O)Nc3ccc4c(c3)OCO4)C2=O)o1,?,0,-101,?,-4,4,21,i,
Cc1cccc(NC(=O)CN2C(=O)N/C(=C/c3ccc(C)o3)C2=O)c1,-12,-5,-22,15,-17,10,-26,i,
CCN(CC)CC(=O)Nc1ccc(C)cc1C(=O)c1ccccc1,-9,-3,11,-6,-1,1,.,i,
CCCCn1c(-c2ccccc2)nc2c(=O)n(C)c(=O)[nH]c21,-14,-9,.,-3,2,4,-14,i,
c1ccc(NC2=NCCCCS2)cc1,2,-5,-15,108*,1,-4,.,i,eIF4H FP inh retest=55*;PABP polyA inh retest=27
COc1cccc(OCCCCCN2CCOCC2)c1,4,-10,-20,-5,1,4,-17,i,
CCc1ccc(NC(=O)CSc2nc3nc(C)cc(C)n3n2)cc1,3,2,-1,2,6,-6,-9,i,
COC(=O)NCC(c1ccco1)N1CCN(c2ccc(F)cc2)CC1 (stereo unspecified),-2,-5,.,3,3,3,.,i,
Cc1ccc2nc(SCC(=O)N3CCCC3)[nH]c2c1,-4,-8,-112,-5,1,0,-23,i,
Cc1ccc(C(=O)NNC(=O)c2ccc3c(c2)OCCO3)cc1,.,0,-89,.,3,3,-15,.,
COc1cc(NS(=O)(=O)c2ccc(NC(=O)Cc3ccccc3)cc2)nc(OC)n1,6,.,-9,-19,-5,-2,-12,i,
CN1CCN(CCCC(=O)c2ccc(C3CCCC3)cc2)CC1,-9,56,4,-2,-4,-2,.,i,
O=C(Nc1ccc(F)c(Cl)c1)C1Cc2c(-c3ccc4c(c3)OCO4)ccnc2O1 (stereo unspecified),.,.,24,.,-8,-21,8,.,
CC(C)CC(=O)N1CC(C)N(C(=O)CC(C)C)CC1C (stereo unspecified),-4,17,-1,-2,.,.,.,i,
Cc1ccc(C)c(C(=O)COC(=O)c2n[nH]c3ccccc23)c1,.,12,-28,.,0,-2,.,.,

# Source: PubChem (several laboratories)
